Screening results: PubChem BioAssay, National Center for Advancing Translational Sciences (NCATS)
D2 PAM – human D2 receptor positive allosteric modulation; DiscoveRx D2 beta-arrestin cells, luminescence, 90 min; 100% = 57 uM dopamine signal; AID 624464; 360,000 compounds, 0.23% hits; potentiation, % (test concentration not listed); active = potentiation of 50% or more; inconclusive = 30% to 50%; inactive = 30% or less;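 further: compound concentration not given in the record; tested on top of an EC20 dose of dopamine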
Target sequence (P14416 whole entry, looked up): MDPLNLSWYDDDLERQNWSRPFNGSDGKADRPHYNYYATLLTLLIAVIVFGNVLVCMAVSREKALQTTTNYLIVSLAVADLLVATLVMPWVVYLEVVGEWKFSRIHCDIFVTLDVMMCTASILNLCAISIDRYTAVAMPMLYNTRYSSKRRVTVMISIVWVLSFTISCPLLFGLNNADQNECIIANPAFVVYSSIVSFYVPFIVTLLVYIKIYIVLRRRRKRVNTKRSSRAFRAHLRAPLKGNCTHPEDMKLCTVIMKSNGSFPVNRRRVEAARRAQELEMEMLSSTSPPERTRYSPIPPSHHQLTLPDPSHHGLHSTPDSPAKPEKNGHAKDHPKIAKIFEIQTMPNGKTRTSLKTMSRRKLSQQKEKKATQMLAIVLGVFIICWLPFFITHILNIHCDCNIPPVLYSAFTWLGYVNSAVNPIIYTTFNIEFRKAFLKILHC
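PathHunter beta-arrestin assay in DiscoveRx D2 cells. Compounds were added with an EC20 of dopamine (50 nM final) for 90 min at 37 deg C. Luminescence was read 1 h after detection reagent, with 57 uM dopamine as the EC100 control.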
CtBP-E1A inh – CtBP/E1A binding inhibition. 340,000 compounds, 0.49% hits. AID 651724. activity change, % (no concentration beside the values). AlphaScreen GST-E1A/His-CtBP binding, 1536-well; hits give low values; control for the full effect not named in the record; in the data active means activity change below about -65%; inconclusive means about -30% to -65%; inactive means above about -30%; further: on the % scale 0 is the no-effect control and ±100 the full control effect
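Steps: dispense buffer (Tris pH 8.0, NaCl 300 mM, TCEP 1 mM, BSA, Tween 20); add 5X protein mix (GST-E1A, His-CtBP, 125 nM each); pin 23 nL compound; 2 h at 37 °C, dark; add 5X beads (50 ug/mL); 1 h; read.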
PINK1 modulator – modulators of PINK1 expression; PINK1 immunofluorescence, high-content cytometry, 24 h; 410,000 compounds, 0.2% hits; Potency, µM (series often up to 76.6 µM), for the others: at the top dose activation (PINK1 increase), most hits filed as activators; active = well fitted activation curve with a large enough effect; inconclusive = small, poorly fitted or top-dose-only effect; inactive = flat fitted curve, though single readings scatter; cell line not stated here;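 further: potency means the concentration at half of the fitted maximal effect; % of control where 0% means no effect; nearly all actives have a fitted effect of over 65% in size; a mitochondrial uncoupler was the plate control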
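PINK1 protein, normally rapidly degraded, was detected by immunofluorescence after 24 hour compound treatment of a stable cell line. Titration data (5 concentrations) came from laser-scanning cytometry, with CCCP-treated wells as controls.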
D2 ag – activates the human D2 dopamine receptor. P14416. DiscoveRx PathHunter D2 beta-arrestin, luminescence, 90 min; 100% = 57 uM dopamine signal. activation, % (concentration not given with the values). 360,000 compounds, 0.084% hits. AID 624465; in the data active = activation above about 40%; inconclusive = about 15% to 40%; inactive = below about 15%; further: the text of the record calls up to 30% inactive
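Agonist mode: compounds alone added to overnight-plated D2 PathHunter cells for 90 min at 37 C, with 57 uM final dopamine (EC100) defining full response. Beta-arrestin recruitment detected by chemiluminescent reagent, read after 1 h at ambient temperature.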
TRPML1 agonist – activates the human TRPML1 channel; activation, % (concentration not given with the values); Q9GZU1; 410,000 compounds, 0.12% hits; TRPML1-expressing cells, Ca2+ dye fluorescence, FDSS; host cell line not named in the record; reference of the full effect not given here; in the data active = activation above about 50%; inconclusive = about 30% to 50%; inactive = below about 30%; further: 0% is about no effect; the text of the record puts the active cut at 80%
Target sequence (Q9GZU1 whole entry, looked up): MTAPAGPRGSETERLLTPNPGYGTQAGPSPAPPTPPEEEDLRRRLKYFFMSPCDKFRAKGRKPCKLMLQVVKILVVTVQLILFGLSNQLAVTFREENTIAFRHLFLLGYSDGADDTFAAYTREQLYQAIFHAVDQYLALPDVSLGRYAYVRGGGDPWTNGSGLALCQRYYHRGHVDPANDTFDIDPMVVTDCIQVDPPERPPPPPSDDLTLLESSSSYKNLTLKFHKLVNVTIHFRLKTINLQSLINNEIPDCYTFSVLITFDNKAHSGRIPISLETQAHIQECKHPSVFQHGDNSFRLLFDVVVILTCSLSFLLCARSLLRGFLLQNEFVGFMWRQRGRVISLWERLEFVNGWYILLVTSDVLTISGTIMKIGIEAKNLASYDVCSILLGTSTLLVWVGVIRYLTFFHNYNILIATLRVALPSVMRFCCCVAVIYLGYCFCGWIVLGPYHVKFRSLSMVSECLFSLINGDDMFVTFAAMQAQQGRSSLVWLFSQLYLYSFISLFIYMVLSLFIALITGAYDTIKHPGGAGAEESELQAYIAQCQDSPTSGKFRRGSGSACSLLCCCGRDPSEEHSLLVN
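Cells: TRPML1-DL, 1X Tet inducer, ~16 h at 37 degrees C/5% CO2. Dye: ABD Ca8 no-wash + quencher, 45-90 min RT. Read: 10 s baseline, compound add, 110 s agonist phase; 54-4 EC80 (4uM final), 110 s antagonist phase.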
Six1-Eya2 blk – blocks human Six1 binding to Eya2; AlphaScreen GST-Six1/His-Eya2 binding, biochemical; hits give low values; control for the full effect not named in the record; activity change, % (no concentration beside the values); Q15475+O00167; 360,000 compounds, 0.56% hits; AID 651725; in the data active = activity change below about -65%; inconclusive = about -30% to -65%; inactive = above about -30%; further: on the % scale 0 is the no-effect control and ±100 the full control effect
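AlphaScreen luminescence read after one hour at 37 °C in darkness. Pin-transferred compounds met GST-Six1 and His-Eya2 protein (5X stock 250 nM/500 nM) plus glutathione donor and Ni-chelate acceptor beads (5X, 50 ug/mL).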
* marks the source's active call; other numbers are inactive results; ? = inconclusive; · = no result given; [ ] = remark or other dose.

SMILES | D2 PAM | CtBP-E1A inh | PINK1 modulator | D2 ag | TRPML1 agonist | Six1-Eya2 blk
COc1cccc(NC(=O)Nc2ccc3nc(C)c(C)nc3c2)c1 | 0 | -9 | 1.0% | -0.5 | -0.5 | -2
COc1ccc(C(C)(C)C)cc1S(=O)(=O)NCC1CCCO1 (stereo not given) | -1 | 6 | 0.7% | -2.9 | -0.2 | 0
CCCN(CC(=O)NC(=O)NCc1ccccc1)CC(=O)Nc1ccc(F)c(F)c1F | -13 | 3 | 3.2% | 0.8 | -0.8 | -3
CCCCn1nnnc1C(c1ccccc1)N1CCN(CCN2CCOCC2)CC1 (stereo not given) | · | -1 | -0.7% | · | -0.3 | -2
COC(=O)C(NC(=O)c1cccnc1Cl)C(C)C (stereo not given) | -1 | 4 | -0.3% | -7.7 | 1.0 | 4
COc1cccc(N2C(=O)C(Cc3c[nH]c4ccccc34)NC2=S)c1 (stereo not given) | -15 | -16 | -0.8% | -1.7 | -0.7 | -8
COc1ccc(-c2ccc(CN3C(CC(C)C)C(=O)N(Cc4cn(CCC5OCCCO5)nn4)CCS3(=O)=O)cc2)cc1OC (stereo not given) | 5 | 4 | 3.9% | 3.8 | -0.2 | -6
COc1cc(/C=C2\SC(=S)N(NC(=O)c3ccncc3)C2=O)ccc1O | -13 | -6 | -0.8% | -11 | · | -26

Single records, as listed above. Screens in order: D2 PAM	CtBP-E1A inh	PINK1 modulator	D2 ag	TRPML1 agonist	Six1-Eya2 blk
CCCCn1nnnc1C(c1ccccc1)N1CCN(CCN2CCOCC2)CC1 (stereo not given) is listed as ·	-1	-0.7%	·	-0.3	-2
COc1cc(/C=C2\SC(=S)N(NC(=O)c3ccncc3)C2=O)ccc1O is listed as -13	-6	-0.8%	-11	·	-26

Following part:
SMILES | D2 PAM | CtBP-E1A inh | PINK1 modulator | D2 ag | TRPML1 agonist | Six1-Eya2 blk
O=C(Cc1ccc(Cl)cc1)NCCS(=O)(=O)N1CCN(c2ccccc2F)CC1 | 20 | -10 | 5.2% | 0.4 | 0.2 | 7
Cc1sc(NC(=O)CN(C(=O)c2ccccc2F)C2CCCC2)c(C(N)=O)c1C | 9 | 13 | 2.8% | -0.4 | -1.0 | -3
Cc1csc(NC(=O)CSc2nccn2Cc2ccco2)n1 | -13 | -1 | -0.3% | -1.9 | 0.7 | 0
COc1cc(/C=C2\SC(=S)N(CC(=O)Nc3ccccn3)C2=O)cc(OC)c1OC | 1 | -26 | 9.4% | -2.5 | 3.4 | -17
COc1ccc(CCNC(=O)COC(=O)/C=C/c2ccc(OCC#N)c(OC)c2)cc1OC | -9 | -1 | 2.8% | -2.3 | -0.4 | -5
COc1ccc(NC(=O)c2ccc(C(=O)c3ccccc3)o2)cc1 | -7 | -8 | 1.0% | -1.8 | -0.5 | -5
c1ccc(OCc2noc(CN3CC[C@@H]4CCCC[C@H]4C3)n2)cc1 | -14 | -9 | 3.5% | -2.1 | 0.1 | 8
Cc1nc(N2CCCC2C(=O)O)c2oc3ccccc3c2n1 (stereo not given) | -18 | 5 | -0.7% | -1.7 | -0.1 | -7
CN(C(=O)CSc1nc2ccccc2[nH]1)C1CCS(=O)(=O)C1 (stereo not given) | 1 | 0 | -0.2% | 6.0 | 3.0 | -1
CC(OC(=O)Cn1cnc2c1c(=O)n(C)c(=O)n2C)C(=O)NCc1ccccc1 (stereo not given) | -14 | -10 | 7.4% | -1.4 | 0.2 | -9
CC1Cc2ccccc2N1C(=O)CN1CCN(S(=O)(=O)c2cccs2)CC1 (stereo not given) | -10 | 13 | 0.3% | -2.5 | 0.5 | -1
COc1ccc(-c2nc(C(N)=O)c3[nH]c(=O)n(-c4cccc(C)c4)c3n2)c(OC)c1 | -11 | -4 | 1.6% | -3.4 | 0.1 | 0
CCOc1ncccc1C(=O)Nc1ccc(S(=O)(=O)NC2=NCCCCC2)cc1 | 0 | 1 | -1.3% | -0.9 | -0.2 | 3
O=C(O)C1=NN(c2c(F)c(F)cc(F)c2F)C(=O)CC1 | -1 | 13 | 0.0% | 2.9 | -0.5 | -2
Cc1cc(=O)oc2cc(OC(C)C(=O)Nc3ccc(N4CCOCC4)cc3)ccc12 (stereo not given) | 8 | 1 | 6.0%[38.3 µM] | -3.4 | 0.9 | -1
Cc1noc(C)c1C(=O)OCC(=O)Nc1c(F)cccc1F | -12 | 1 | 0.9% | -5.7 | -1.1 | -1
Cn1c(SCC(=O)c2c(N)n(C)c(=O)n(C)c2=O)nnc1-c1ccccc1F | -15 | -14 | 13% | -2.5 | -0.7 | 8
COc1ccc(-n2nc(C(N)=O)nc2-c2ccccc2)cc1 | -3 | 2 | -1.6% | 1.0 | 0.1 | 1
Cc1ccc([C@@H]2C[C@H]3[C@@H](CN2S(=O)(=O)c2ccc(C)cc2)C(=O)C[C@@H](c2ccccc2)N3S(=O)(=O)c2ccc(C)cc2)cc1 | -1 | -7 | 1.4% | -8.5 | 1.0 | -1
CC1(C)Cc2nc(Cl)c(C(N)=O)cc2CO1 | -14 | · | 1.1% | -2.1 | -0.3 | 5
Cc1ccc(-c2cc(C(F)(F)F)nc(SCC(=O)c3cccc([N+](=O)[O-])c3)n2)cc1 | -10 | 6 | ? | -1.5 | 1.5 | -16
Cc1ccc(NC(=O)c2cncc(Br)c2)nc1 | -4 | -21 | -1.7% | -1.1 | -0.2 | -8
O=C(O)CC(NC(=O)C(F)(F)F)c1ccc2c(c1)OCO2 (stereo not given) | -5 | 8 | -0.5% | -2.3 | 1.0 | 1
Cc1nc2ccccc2c(=O)n1NS(C)(=O)=O | -8 | 1 | -0.6% | -1.2 | 1.3 | 10
CCOC(=O)C1C(=O)CC(C)(O)C(C(=O)OCC)C1c1ccco1 (stereo not given) | 0 | -2 | 0.2% | 1.6 | -0.7 | 5
O=S(=O)(c1cccc(-c2n[nH]c(=S)n2Cc2ccccc2)c1)N1CCOCC1 | -14 | -6 | 0.2% | -4.8 | 1.5 | -2
NC(=O)C1CCN(C(=O)c2cc(-c3ccc(Cl)cc3)nc3ccccc23)CC1 | -3 | 7 | 1.6% | -1.7 | 0.7 | 1
COc1cccc(N/N=C/c2cccc(Br)c2O)c1 | 0 | -7 | 14% | ? | 0.8 | -10
Cc1cc(C)c(S(C)(=O)=O)c(Oc2ccc(F)cc2)n1 | 2 | 6 | -0.3% | -3.1 | 0.8 | 1
Cc1ccc(C)c(N2CC(=O)N(c3cc(C)ccc3C)CC2=O)c1 | -19 | 2 | 2.9% | -3.0 | 0.0 | 4
Cc1ccccc1Cn1c(CN2CCN(C(=O)c3ccco3)CC2)nc2c1c(=O)n(C)c(=O)n2C | -5 | -25 | 0.7% | -3.4 | -0.4 | -3
Cc1ccc(C)c(C(O)c2ncc(-c3ccccc3)[nH]2)c1 (stereo not given) | -10 | -15 | 2.2% | -8.1 | -0.7 | 8
O=C(CN1C(=O)c2ccccc2S1(=O)=O)Nc1cccc(S(=O)(=O)N2CCOCC2)c1 | -5 | -4 | -0.5% | -1.8 | 0.2 | -6
Cc1cc(C)n2nc(SCC(=O)Nc3ccc(S(=O)(=O)N(C)C)cc3)nc2n1 | 2 | -4 | 0.2% | -2.2 | 0.4 | 3
CN(Cc1ccc(C(C)(C)C)cc1)C(=O)C1CCN(C(=O)Nc2ccccc2)CC1 | 1 | 2 | 0.6% | 1.9 | 0.9 | 6
Cc1ccc2c(c1)C1C=CCC1C(C(=O)NCCCN1CCOCC1)N2 (stereo not given) | -16 | -8 | 0.1% | 0.9 | -0.2 | 0
COc1ccc(N2CCN(c3cc(C)c4ccc(C)cc4n3)CC2)cc1 | -7 | -2 | 0.1% | -5.4 | 2.6 | ?
CCOC(=O)CSC1=NC(=O)/C(=C\c2ccc(OC(C)=O)cc2)S1 | -10 | 10 | ? | -3.7 | 0.1 | -12
CC(C)N1CC=C2C(C#N)=C(N)C(C#N)(C#N)C(c3ccccc3)C2C1 (stereo not given) | -19 | -5 | 7.9µM* | -3.9 | 4.0 | ?
COc1cccc(/C=N/NC(=O)NC23CC4CC(CC(C4)C2)C3)c1O | -17 | -8 | 7.6% | -8.0 | -0.4 | -15
COc1ccccc1NC(=O)c1ccc(NC(=O)COC(=O)c2cncc(Br)c2)cc1 | 2 | -2 | 0.5% | 2.2 | 3.3 | -2
COc1ccc([N+](=O)[O-])cc1NC(=S)NC(=O)C(C)(C)C | -12 | -3 | 4.9% | -2.2 | 2.4 | -15
O=C(NCc1cccc(Cl)c1)c1ccc(-n2cncn2)c2ccoc12 | -7 | -15 | 1.8% | -4.4 | -1.0 | -22
CCOc1ccc(NC(=O)C(Cc2ccccc2)NC(=O)C2CCCCC2)cc1 (stereo not given) | -3 | 23 | 10% | -7.6 | -0.2 | -1
Cc1ccc(O)c(N=Nc2ccc(S(=O)(=O)N3CCCC3)cc2)c1 | -4 | 5 | 2.1% | -0.8 | -0.1 | 14
Cc1occc1-c1nnc(SCC(=O)N2CCN(c3ccccc3)CC2)n1C | -17 | 5 | 0.7% | 1.8 | -0.6 | 1
Cc1nc2cc(CO)ccc2n1C | -8 | 7 | -0.8% | 0.2 | 2.7 | 3
CCc1nnc(NC(=O)c2ccc(S(=O)(=O)NCC(C)C)cc2)s1 | 4 | 9 | · | -2.4 | -0.1 | 1
N=NC(=O)c1ccccc1Nc1c(O)[nH]c2ccccc12 | -22 | 1 | -1.6% | -1.5 | 0.7 | -19
CC(O)CNCCOc1cccc(Oc2ccccc2)c1 (stereo not given) | -11 | -4 | 0.4% | 1.2 | 1.7 | 8

Grouped by structure: the compounds so far containing fluorine.
SMILES | D2 PAM | CtBP-E1A inh | PINK1 modulator | D2 ag | TRPML1 agonist | Six1-Eya2 blk
CCCN(CC(=O)NC(=O)NCc1ccccc1)CC(=O)Nc1ccc(F)c(F)c1F | -13 | 3 | 3.2% | 0.8 | -0.8 | -3
O=C(Cc1ccc(Cl)cc1)NCCS(=O)(=O)N1CCN(c2ccccc2F)CC1 | 20 | -10 | 5.2% | 0.4 | 0.2 | 7
Cc1sc(NC(=O)CN(C(=O)c2ccccc2F)C2CCCC2)c(C(N)=O)c1C | 9 | 13 | 2.8% | -0.4 | -1.0 | -3
O=C(O)C1=NN(c2c(F)c(F)cc(F)c2F)C(=O)CC1 | -1 | 13 | 0.0% | 2.9 | -0.5 | -2
Cc1noc(C)c1C(=O)OCC(=O)Nc1c(F)cccc1F | -12 | 1 | 0.9% | -5.7 | -1.1 | -1
Cn1c(SCC(=O)c2c(N)n(C)c(=O)n(C)c2=O)nnc1-c1ccccc1F | -15 | -14 | 13% | -2.5 | -0.7 | 8
Cc1ccc(-c2cc(C(F)(F)F)nc(SCC(=O)c3cccc([N+](=O)[O-])c3)n2)cc1 | -10 | 6 | ? | -1.5 | 1.5 | -16
O=C(O)CC(NC(=O)C(F)(F)F)c1ccc2c(c1)OCO2 (stereo not given) | -5 | 8 | -0.5% | -2.3 | 1.0 | 1
Cc1cc(C)c(S(C)(=O)=O)c(Oc2ccc(F)cc2)n1 | 2 | 6 | -0.3% | -3.1 | 0.8 | 1
